Screens deposited in PubChem BioAssay by several laboratories.
CBX7 inh: CBX7 chromodomain binding inhibitors, primary screen, biochemical, AlphaScreen | AID 1224903, 2016 | AlphaScreen His6-CBX7 / biotin-H3K27me3 peptide binding; active compounds read low | 66,000 compounds, 1.1% hits | Chromobox protein homolog 7 (Homo sapiens), O95931 | normalised signal (fraction of DMSO) (concentration not given with the values); in the data active = normalised signal below about 0.5;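 note: 100 nL library stock added to about 20 µL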
Target sequence (O95931 whole entry, looked up): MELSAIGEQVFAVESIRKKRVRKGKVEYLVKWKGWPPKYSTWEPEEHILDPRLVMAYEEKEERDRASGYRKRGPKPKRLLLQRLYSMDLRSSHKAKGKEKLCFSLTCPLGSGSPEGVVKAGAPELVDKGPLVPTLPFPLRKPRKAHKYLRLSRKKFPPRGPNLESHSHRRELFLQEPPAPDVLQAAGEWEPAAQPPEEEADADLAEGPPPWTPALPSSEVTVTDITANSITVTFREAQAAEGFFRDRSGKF
CBX7 inh z-score: also measured in CBX7 inh; calls as there; z-score; measured here: z-score of CBX7 signal; some inactives read as strong as hits; reference of the scale not given here;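 same signal on another scale; lower means less binding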
The depositor's hits bear a star; & = joins results of further samples.

SMILES | CBX7 inh | CBX7 inh z-score
Cc1ccc(Nc2c(-c3c[nH]c4ccccc34)nc3ccc(C)cn23)cc1 | 0.828 | -4.59
Cc1ccc(-c2nnc(Nc3ccc(C(N)=O)cc3)c3ccccc23)cc1S(=O)(=O)NC(C)(C)C | 0.846 | -2.9
COc1ccc(OC)c(-c2cc(C(=O)Nc3c(C)nn(Cc4ccccc4)c3C)no2)c1 | 1.1 | 0.768
COc1ccc(Nc2cc(C(=O)N3CCN(c4ccccc4)CC3)c3ccccc3n2)c(OC)c1 | 0.724 | -3.65
CC(C)c1ccc(NC(=O)C2CCN(S(=O)(=O)c3cnc[nH]3)CC2)cc1 | 0.964 | -0.424
Cc1ccc(S(=O)(=O)c2cn(CC(=O)Nc3cccc(Cl)c3)c3ccc(F)cc3c2=O)cc1 | 0.902 | -1.37
Cc1nc(C#N)c(N2CCOCC2)o1 | 1.01 | 0.142
CC1CCN(S(=O)(=O)c2ccc3c(c2)N(CC(=O)NCc2ccccc2)C(=O)CS3)CC1 | 0.848 | -1.65
O=C1Nc2ccccc2N=C(c2ccccc2)C1N1CCOCC1 (configuration not stated) | 0.963 | -0.162
O=C(Nc1ccc2c(c1)OCO2)C(c1ccccc1)N1CCCCC1 (configuration not stated) | 0.884 | -2.47
CCCCCOc1ccc(NC(=O)c2cncc(Br)c2)cc1 | 1.09 | 1.84
CC1CCN(C(=O)Cn2cc(S(=O)(=O)N3CCC(C)CC3)c3ccccc3c2=O)CC1 | 1.02 | 0.475
CCOC(=O)Cc1csc(NC(=O)COc2c(C)cccc2C)n1 | 1.22 | 3.47
COC(CNC(=O)CCc1c(C)nc2c(-c3ccccc3)c(C)nn2c1C)OC | 0.826 | -2.86
Cc1ccc(C(=O)Nc2nc(-c3ccc(C#N)cc3)cs2)cc1 | 0.989 | -0.231
CCC(=O)N1CCc2cc(S(=O)(=O)NCc3cccnc3)ccc21 | 1.2 | 2.09
CCc1cccc2c1NC(=O)C2(O)CC(=O)c1cccs1 (configuration not stated) | 1.03 | 0.956
O=C(CCc1nc(-c2ccccc2F)no1)NC1CC1 | 1.11 | 1.7
Cn1c(=O)n(CCOc2ccc(Cl)cc2Cl)c2ccccc21 | 1.02 | 0.885
CCCNS(=O)(=O)c1ccc2c(c1)CCN2C(=O)CC | 1.11 | 0.454
CNC(=O)Cn1nc(-c2ccc(C)cc2)c2ccccc2c1=O | 1.04 | 0.943
O=C(Nc1nccs1)c1ccc(S(=O)(=O)N2CCOCC2)cc1 | 1.12 | 1.19
COc1ccc(Nc2ncc(C(=O)NCc3ccccn3)c3ccccc23)cc1 | 0.809 | -3.21
Cc1c(C(=O)N2CCOCC2)oc2ccc(S(=O)(=O)N3CC(C)CC(C)C3)cc12 (configuration not stated) | 1.03 | 0.155
COc1cccc(CNC(=O)C(Cc2ccccc2)NS(=O)(=O)c2ccc3c(c2)CCC(=O)N3)c1 (configuration not stated) | 0.98 | -0.384
CCOC(=O)c1c(C)n(-c2ccc(C)cc2)c2ccc(OCC(O)CN(CC)CC)cc12 (configuration not stated) | 0.664 | -3.65
COc1cccc(-c2nc(SCC(=O)NCC3CCCO3)c(-c3ccccc3)[nH]2)c1 (configuration not stated) | 0.885 | -2.84
N#Cc1nc(COc2ccccc2)oc1N1CCCCC1 | 0.638 | -2.26
CCCC1=Nc2cc(C(=O)NCc3ccccc3)ccc2Sc2ccccc21 | 0.979 | -0.256
CCc1ccc(-c2nc(CSCC(=O)NCCCSCCC(C)C)c(C)o2)cc1 | 0.62 | -2.38
COc1ccc(C2CC(c3ccco3)=Nc3ccccc3S2)cc1 (configuration not stated) | 0.594 | -6.3
CC(C)CC(C(=O)Nc1ccc(F)cc1)N1C(=O)c2ccccc2C1=O (configuration not stated) | 1.03 | 0.141
O=c1c2c(nc3n1CC(O)CS3)-c1ccccc1CC21CCCC1 (configuration not stated) | 1.03 | 0.288
COc1ccc(CNC(=O)C2CCCN(S(=O)(=O)c3c(C)noc3C)C2)cc1 (configuration not stated) | 1.02 | 0.173
Cc1ccc(C(=O)Nc2ncc(Cc3ccc(F)cc3)s2)cc1 | 1 | 0.00491
CC(=O)N1CCc2cc(S(=O)(=O)NCCCN3CCCC(C)C3)ccc21 (configuration not stated) | 1.26 | 1.87
CC(=O)Oc1ccc(/C=C/c2nc(-c3ccccc3O)n[nH]2)cc1 | 0.971 | -1.18
Cc1ccc(S(=O)(=O)N2CCCC2C(=O)Nc2cc(C)on2)cc1 (configuration not stated) | 0.998 | -0.0533
CC(C)Cc1cc(C(=O)NCCN2CCOCC2)no1 | 1.11 | 1.25
CCOc1ccc(NC(=O)c2sc3ncn(Cc4ccccc4F)c(=O)c3c2C)cc1 | 1.12 | 0.825

Looked up by structure from the list above, 4 records:
SMILES | CBX7 inh | CBX7 inh z-score
Cc1c(C(=O)N2CCOCC2)oc2ccc(S(=O)(=O)N3CC(C)CC(C)C3)cc12 (configuration not stated) | 1.03 | 0.155
O=C(Nc1nccs1)c1ccc(S(=O)(=O)N2CCOCC2)cc1 | 1.12 | 1.19
CCCC1=Nc2cc(C(=O)NCc3ccccc3)ccc2Sc2ccccc21 | 0.979 | -0.256
CC(=O)Oc1ccc(/C=C/c2nc(-c3ccccc3O)n[nH]2)cc1 | 0.971 | -1.18

Reformatted: entries from further up
> CC(=O)N1CCc2cc(S(=O)(=O)NCCCN3CCCC(C)C3)ccc21 (configuration not stated)
  CBX7 inh: 1.26
  CBX7 inh z-score: 1.87
> O=C(Nc1nccs1)c1ccc(S(=O)(=O)N2CCOCC2)cc1
  CBX7 inh: 1.12
  CBX7 inh z-score: 1.19
> COc1cccc(-c2nc(SCC(=O)NCC3CCCO3)c(-c3ccccc3)[nH]2)c1 (configuration not stated)
  CBX7 inh: 0.885
  CBX7 inh z-score: -2.84
> COc1cccc(CNC(=O)C(Cc2ccccc2)NS(=O)(=O)c2ccc3c(c2)CCC(=O)N3)c1 (configuration not stated)
  CBX7 inh: 0.98
  CBX7 inh z-score: -0.384

Remaining list, next part:
SMILES | CBX7 inh | CBX7 inh z-score
O=C(Nc1ccc(F)cc1)c1n[nH]c(=O)c2ccccc12 | 1.12 | 0.719
COCCNC(=O)c1c(-c2ccccc2)noc1C | 1.03 | 0.0345
O=C(C1c2ccccc2C(=O)N2CCc3ccccc3C12)N1CCN(c2cccc(Cl)c2)CC1 (configuration not stated) | 0.931 | -1.36
COc1ccc(Oc2nnc(C)c3ccccc23)cc1 | 1 | 0.0655
Cc1ccccc1CN1C(=O)C(O)(CC(=O)c2ccc(F)cc2)c2ccccc21 (configuration not stated) | 0.623 | -3.02
CCOc1ccc(-c2cc(C(=O)NCCCN(CC)c3ccccc3)c3ccccc3n2)cc1 | 0.849 | -2.84
Cc1cc(C(=O)Nc2ccc(Cl)cc2)n(-c2ccccc2)n1 | 1.01 | 0.0598
Cc1cc2ccccc2c(=O)n1CC(=O)NCC(=O)Nc1cccc(Cl)c1 | 1.22 | 2.17
Cc1ccc(-c2[nH]c(-c3ccc(Cl)cc3)nc2SCC(=O)NCC2CCCO2)cc1 (configuration not stated) | 0.822 | -2.92
CCOc1ccc(-c2nc(CSCC(=O)NCc3ccccc3OC)c(C)o2)cc1 | 0.742 | -3.56
CCc1nnc(NS(=O)(=O)c2ccc(NC(=O)c3cc(Cl)ccc3OC)cc2)s1 | 1.23 | 2.21
COc1ccc2c(c1)c(C(=O)O)c(C)n2-c1ccc(Cl)cc1 | 1.07 | 1.96
O=C(c1ccc2nc(-c3cccs3)c(-c3cccs3)nc2c1)N1CCOCC1 | 0.774 | -0.632
COc1ccccc1N1CCN(C(=O)c2cccc(NC3=NC4CS(=O)(=O)CC4S3)c2)CC1 (configuration not stated) | 1.11 | 1.16
COc1ccc(OC)c2[nH]c(=O)c(CCNC(=O)Cc3ccc(F)cc3)cc12 | 0.98 | -0.878
COc1ccc(-c2c(C)nn3c(NCC(OC)OC)cc(C)nc23)cc1OC | 0.955 | -0.112
Cc1cc(N2CCC(C)CC2)nc2ccc(NC(=O)c3cnccn3)cc12 | 0.952 | -0.815
O=C(NCCc1ccccc1)c1ccc2c(c1)C(=O)N(c1ccccn1)C2=O | 0.999 | -0.0208
CCc1ccccc1NC(=O)C1CCN(S(=O)(=O)c2cnc[nH]2)CC1 | 1.08 | 0.64
Cc1ccc(NC(=O)CSc2nccn2-c2ccc(Cl)cc2)cc1 | 0.915 | -0.667

Shown as labelled records: 2 of the compounds above
COc1ccc(Nc2cc(C(=O)N3CCN(c4ccccc4)CC3)c3ccccc3n2)c(OC)c1
  CBX7 inh: 0.724
  CBX7 inh z-score: -3.65
Cc1cc2ccccc2c(=O)n1CC(=O)NCC(=O)Nc1cccc(Cl)c1
  CBX7 inh: 1.22
  CBX7 inh z-score: 2.17

Other compounds:
SMILES | CBX7 inh | CBX7 inh z-score
CC1C(=O)C(C)C(c2ccccc2)NC1c1ccccc1 (configuration not stated) | 1.21 | 0.832
Cc1cc(C)c(S(=O)(=O)N2CCCCC2c2cccnc2)c(C)c1 (configuration not stated) | 0.731 | -0.752
Cc1ccccc1NC(=O)COc1nsnc1N1CCOCC1 | 1.14 | 1.63
CCOC(=O)c1ccc(NC(=O)c2c(NCc3cccnc3)sc3c2CCC3)cc1 | 1.01 | 0.593
CSc1nnc(-c2cc(Cl)ccc2NC(C)=O)c(=O)[nH]1 | 1.06 | 2.7
COc1ccc(CNC(=O)CCc2c(C)nc3c(c(C)nn3-c3ccc(C)cc3)c2C)cc1 | 0.877 | -0.936
Cc1ccc(CNC(=O)c2c[nH]c3ccc(S(=O)(=O)N4CCOCC4)cc3c2=O)cc1 | 1.15 | 2.33
CCCCNC(=O)c1ccc2c(c1)N(Cc1ccccc1F)C(=O)c1ccccc1S2 | 1.03 | 0.793
CC1=Nn2c(nc(-c3ccccc3)c2-c2ccccc2)NC(=O)C1 | 0.891 | -2.71
Cc1cc(C)cc(N(CC(=O)O)S(=O)(=O)c2ccc3[nH]c(=O)c(=O)[nH]c3c2)c1 | 1 | 0.0293
Cc1ccc(-c2nc3ncccc3o2)cc1NC(=O)c1cc2ccccc2o1 | 1.01&0.935 | 0.163&-1.1
COc1cc2c(c(OC)c1)C(c1ccccc1OC)CC(=O)N2 (configuration not stated) | 1.05 | 0.656
COc1ccc(C)cc1S(=O)(=O)NCCc1c(C)[nH]c2ccc(Br)cc12 | 1.06 | 0.548
Cc1cc2ncn(C(=O)c3ccccc3C(=O)O)c2cc1C | 0.922 | -0.336
Cc1sc2ncn(CC(=O)Nc3ccccn3)c(=O)c2c1S(=O)(=O)N1CC(C)CC(C)C1 (configuration not stated) | 1.05 | 0.531
OCCSc1nc2ccccc2n1CCOc1ccccc1 | 1.08 | 2.16
CC(=O)NC(CCS(C)(=O)=O)C(=O)Nc1nc2ccccc2s1 (configuration not stated) | 1.01 | 0.504
COc1ccc(NC(=O)c2c(-c3ccccc3Cl)noc2C)cc1 | 1.02 | 0.0944
CC1CCN(C(=O)c2cn(C3CCCCC3)c(=O)c3c2c2ccccc2n3C)CC1 | 0.924 | -1.88
CCCN(CCC)CCCNC(=O)CCC(=O)Nc1ccc2nc(N3CCOCC3)cc(C)c2c1 | 1.09 | 0.121
Cc1ccc(NC(=O)c2oc3ccc(S(=O)(=O)N4CCCC4)cc3c2C)cc1Cl | 1.08 | 1.38
COc1ccc(Cl)cc1NC(=O)c1c(NCc2cccs2)sc2c1CCCC2 | 0.817 | -9.49
Cc1cc(Nc2ccc3c(c2)OCCO3)n2ncnc2n1 | 0.759 | -2.46
CCN1CCN(CCCNC(=O)c2cnc(Nc3cccc(OC)c3)c3ccccc23)CC1 | 0.881 | -1.29
COc1ccc(OC)c(CNc2ccc3c(c2)nc(C)n3C)c1 | 0.993 | -0.168
CCOc1ccc2nc(N3CCC(C(=O)NC4CC4)CC3)sc2c1 | 0.976 | -0.106
COc1ccc(OCCCn2c(C3CC(=O)N(c4ccc(C)c(C)c4)C3)nc3ccccc32)cc1 (configuration not stated) | 0.92 | -0.503
CCC(=O)N1CCc2cc(S(=O)(=O)NC(CC(C)C)C(=O)Nc3cccc(C)c3C)ccc21 (configuration not stated) | 1.01 | 0.367
COc1ccccc1-c1cc2nc(C)c(CCC(=O)NCc3ccc(F)cc3)c(C)n2n1 | 1.02 | 0.764
COC(=O)Cc1cc(=O)n(-c2nc3ccccc3s2)[nH]1 | 0.993 | -0.37
CCOc1ccc(C(=O)N(Cc2cccc(Cl)c2)C2CCS(=O)(=O)C2)cc1 (configuration not stated) | 1.02 | 0.0207
CCCN(CCC)CCCNS(=O)(=O)c1ccc2c(c1)CC(C)N2C(=O)CC (configuration not stated) | 0.748 | -1.02
O=C(Nc1ccccc1C(=O)Nc1ccc(Cl)cc1)c1cccc(S(=O)(=O)N2CCCCC2)c1 | 0.876 | -1.89
CCOC(=O)c1cc(-c2ccccc2)n(-c2cccc(C(=O)NC(C)(C)C)c2)c1C | 0.842 | -1.7
COc1ccc(-c2nc3ccccn3c2NC(=O)C(C)C)cc1 | 1.04 | 1.46
CCOC(=O)N1CCN(C(=O)CC(C(=O)N2CCc3ccccc32)n2ccnc2)CC1 (configuration not stated) | 1.01 | 0.246
COc1ccc2nc(-c3ccccc3)c(-c3ccccc3)nc2c1 | 1.24 | 6.67
CCc1ccc(CN(C(=O)COc2ccc(C(C)C)cc2)C2CCS(=O)(=O)C2)cc1 (configuration not stated) | 0.9 | -0.0994
O=c1c2ccccc2nc(N2CCN(Cc3ccccc3)CC2)n1-c1ccccc1 | 0.869 | -0.272
Cc1ccc(NC(=O)c2cc(-c3ccccc3)nc3c(C)cccc23)cc1 | 1.01 | 0.0958
Clc1ccc(Sc2c(-c3ccccc3)nc3ncccn23)cc1 | 1.16 | 1.17
O=C(C1CCN(c2nnc(-n3cccc3)s2)CC1)N1CCCCC1 | 1.03 | 1.07
COc1ccc(-n2nnc3c(=O)n(Cc4ccc(F)cc4)cnc32)cc1 | 0.953 | -0.895
Cc1ccc(NC(=O)Cn2cc(S(=O)(=O)c3ccc(Cl)cc3)c(=O)c3cc(C)ccc32)c(C)c1 | 0.912 | -1.44

The list is partial (hit frequency here may not be typical).
